ALR inh: blocks human ALR sulfhydryl oxidase activity. P55789. purified ALR, DTT oxidation, H2O2 HRP-luminol luminescence. inhibition, % (no concentration beside the values). 290,000 compounds, 3.8% hits. AID 485317;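 active = mean and each replicate at 75% or more; inconclusive = only one of the two met; inactive = neither met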;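 also: stock transfer was 7.5 nL into about 7.5 µL; 0% = neutral wells and 100% = wells with inactivated enzyme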
Target sequence (P55789 whole entry, looked up): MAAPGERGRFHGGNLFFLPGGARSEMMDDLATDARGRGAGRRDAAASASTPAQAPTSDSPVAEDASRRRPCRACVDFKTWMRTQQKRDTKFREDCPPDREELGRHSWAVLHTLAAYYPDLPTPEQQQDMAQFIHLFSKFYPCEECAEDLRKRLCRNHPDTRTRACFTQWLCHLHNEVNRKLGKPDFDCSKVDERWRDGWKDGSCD
FGF22 binding: shifts melting point of recombinant human FGF22. Q9HCT0. recombinant FGF22 thermal shift, SYPRO orange fluorescence; percent of sucrose octasulfate shift, DMSO zero. calls only at 9.99 µM. 340,000 compounds, 1.5% hits;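 active = melting point raised past a set limit in the mean and every replicate; inconclusive = no clear call; three in four hits are not shown here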
Target sequence (Q9HCT0 whole entry, looked up): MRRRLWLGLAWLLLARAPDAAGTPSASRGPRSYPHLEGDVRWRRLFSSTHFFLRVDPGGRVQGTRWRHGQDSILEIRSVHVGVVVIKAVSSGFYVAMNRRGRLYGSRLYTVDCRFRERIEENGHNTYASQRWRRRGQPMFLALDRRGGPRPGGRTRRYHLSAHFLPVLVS
rRNA inh HTS: inhibitors of bacterial rRNA selective over humanized ribosomes. E. coli WT GFP vs humanized-ribosome RFP mutants, fluorescence, 24 h; hits give low values; DMSO median 0, no signal -100. GFP signal change (wild-type ribosome), % (test concentration not listed). 350,000 compounds, 1.6% hits. AID 720706;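 active = significant combined selectivity score with lowered wild-type GFP, culture density cut under 30%, mutant RFP and density less affected; inactive = any of these conditions unmet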; also: one replicate is shown; some compounds called inactive have numbers as strong as hits
T cruzi repl: blocks replication of Trypanosoma cruzi; T. cruzi beta-gal in NIH3T3, luminescence, 90 h; inhibition, % (concentration not given with the values); 300,000 compounds, 1.4% hits;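 active = mean inhibition across valid replicates above about 55%, limit read from the data; inconclusive = mean below that limit but half or more replicates reach it; inactive = mean below it, under half of replicates reach it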;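 also: signal also drops with host cell toxicity which is not excluded here; 0% = plate median of DMSO wells and 100% = zero luminescence signal; higher percent means less beta-gal luminescence so fewer parasites; stock transfer was 50 nL into about 50 µL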
Calb FLC: C. albicans growth modulation with fluconazole | growth inhibition, % (no concentration beside the values) | C. albicans CaCi-2 (fluconazole-resistant clinical isolate) + fluconazole, Alamar Blue growth, 48 h | 300,000 compounds, 0.57% hits | AID 1979;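 active = most replicates above 75%; inconclusive = exactly half above 75%; inactive = most below 75%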;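 also: all wells also contain fluconazole at 8 µg/ml as a sub-toxic cotreatment; 0% = median of DMSO wells and 100% = median of geldanamycin control wells; wells of about 8 µL received 7.5 nL stock; the first replicate is given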
RanGTP-Impb inh: disruptors of Ran-importin-beta complex formation – biochemical, FRET, CFP-Ran, YFP-importin-beta, homogeneous, primary screen; 300,000 compounds, 1.1% hits; AID 2216; inhibition, % (test concentration not listed); cell-free CFP-Ran/YFP-importin-beta FRET ratio;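 active = most replicates above 15%; inconclusive = exactly half above 15%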;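 also: 0% = DMSO wells and 100% = Ran loaded with GDP instead of GTP; wells of about 40 µL received 100 nL stock; the first replicate is given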
Beta apoptosis: blocks beta cell apoptosis; 300,000 compounds, 0.8% hits; INS-1E cytokine-induced death, ATP luminescence, 48 h; percent of positive-control rescue, neutral wells zero; protection from apoptosis, % (concentration not given with the values); AID 435005;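 active = all replicates at 75% or more, or half of them and the mean; inconclusive = half reach 75% but not the mean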;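 also: 0% = cytokine-treated negative control wells and 100% = positive control rescue; higher means more ATP so stronger rescue from cytokine killing; wells of about 40 µL received 100 nL stock; the first replicate is given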
AF4-AF9 inh: inhibitors of human MLL-AF4/AF9 interaction; AID 651704; 350,000 compounds, 0.47% hits; inhibition, % at 10 µM; P42568; AlphaScreen, biotin-AF4 peptide binding to FLAG-AF9;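 active = every replicate reaching a set inhibition limit, whatever the replicate mean, cut at about 25% in these data; inconclusive = mean inhibition reaches that limit but some replicates miss it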;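 also: 0% = plate neutral control median and 100% = total signal loss; the record names both 10 and 1 µM as test concentration; the first replicate is given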
Target sequence (P42568 whole entry, looked up): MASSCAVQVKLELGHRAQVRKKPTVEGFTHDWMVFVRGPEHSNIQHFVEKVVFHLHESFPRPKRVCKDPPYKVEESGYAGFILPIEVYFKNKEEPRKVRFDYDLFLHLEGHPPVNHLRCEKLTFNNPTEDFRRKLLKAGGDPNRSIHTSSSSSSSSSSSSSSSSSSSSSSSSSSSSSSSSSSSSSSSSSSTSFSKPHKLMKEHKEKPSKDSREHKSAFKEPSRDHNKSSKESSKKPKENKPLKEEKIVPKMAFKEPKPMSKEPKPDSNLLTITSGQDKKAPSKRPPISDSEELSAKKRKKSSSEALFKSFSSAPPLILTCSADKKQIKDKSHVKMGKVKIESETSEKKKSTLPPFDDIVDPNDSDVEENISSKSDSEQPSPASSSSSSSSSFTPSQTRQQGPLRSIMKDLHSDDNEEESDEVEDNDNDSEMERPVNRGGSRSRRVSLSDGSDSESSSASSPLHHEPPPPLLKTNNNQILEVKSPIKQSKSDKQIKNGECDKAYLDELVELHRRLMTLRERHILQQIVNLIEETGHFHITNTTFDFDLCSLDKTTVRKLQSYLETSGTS
rRNA inh HTS OD600: further read-out of rRNA inh HTS, marked with its call; OD600 change, %; measured here: OD600 growth;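 optical density of the mix in the first replicate; 0 = DMSO median and -100 = no signal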
rRNA inh HTS RFP: recorded beside rRNA inh HTS, whose call it bears; RFP signal change, %; measured here: RFP humanized mutant strains;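 first replicate; 0 = DMSO median and -100 = no signal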
Starred values were filed as active, the others as inactive; i = inactive; ? = inconclusive; . = no result given.

Compound	ALR inh	FGF22 binding	rRNA inh HTS	rRNA inh HTS OD600	rRNA inh HTS RFP	T cruzi repl	Calb FLC	RanGTP-Impb inh	Beta apoptosis	AF4-AF9 inh
CCCCNC(=O)c1onc(CSc2cc(C)cc(C)c2)c1C(=O)O	-2.0	.	-29.2*	-10.3*	2.9*	-6.1	7.4	3.2	-10.1	.
COc1ccc(O)c(/C=N/NC(=O)c2cccc(N3CCCC3=O)c2)c1	0.7	i	11.6	10.8	-0.4	19.1	-6.6	-1.1	93.6*	-1.9
Cc1ccc(S(=O)(=O)NC(=O)c2ccc(Br)o2)c(C)c1	.	i	0.0	-2.4	5.3	4.0	15.4	1.7	-17.4	-0.2
Cn1nc(-c2ccc(Cl)cc2)c2cc(C(=O)NCC3CCCO3)sc21 (stereo not drawn)	92.6*	i	-35.4	-48.4	-11.8	9.4	9.3	-0.4	-2.6	-2.7
Cc1ccc(NC(=O)c2sc3nc(C)cc(C)c3c2N)cc1	-3.7	i	-11.9	-6.9	5.8	11.3	-7.2	9.8	.	-1.7
COc1ccccc1OCc1csc(N)n1	1.0	i	13.9	12.1	-0.3	-7.4	13.2	-4.5	-3.9	-1.2
Cc1cccc(NC(=O)c2ccc(OCc3c(C)noc3C)cc2)c1	0.5	i	-6.2	-41.8	-1.5	.	.	.	6.6	2.7
CCC(=O)N1CCN(c2ccc(NC(=S)NC(=O)c3ccc(OC)c([N+](=O)[O-])c3)cc2)CC1	27.3	i	-3.8	-4.4	3.8	2.9	?	1.8	0.6	2.2
CN1CCN(NC(=O)CSc2ccc(Cl)cc2Cl)CC1	-16.6	i	16.9	18.2	3.8	21.0	-0.1	0.3	3.1	-1.1
N#Cc1c(C(F)(F)F)cc(C2CC2)nc1N1CCCC1	1.0	.	.	.	.	-4.6	2.3	3.5	.	.
Cc1ccccc1CSc1nnc(-c2ccncc2)o1	-1.1	i	-18.9*	-11.0*	1.9*	33.6	3.0	?	4.3	0.8
CCNC(=S)N/N=C1\CCCCc2ccccc21	7.3	i	-16.8	-13.2	8.6	-10.8	-24.0	1.9	-6.2	-4.0
CCCc1cc(=O)[nH]c(SCC(=O)Nc2sc3c(c2C#N)CCC(C)C3)n1 (stereo not drawn)	89.3*	i	-54.0	-72.8	-30.9	-3.7	?	1.0	-0.2	-3.6
O=S(=O)(NC1CCCCC1N1CCN(c2ccc(F)cc2)CC1)c1ccccc1 (stereo not drawn)	21.4	i	2.6	1.1	3.2	26.7	15.0	?	8.5	10.2
CCOC(=O)c1cc(CC)sc1/N=C/C1=C(O)CC(C)(C)CC1=O	3.0	.	.	.	.	12.2	-2.6	2.3	-12.0	.

Laid out differently: 3 of the compounds above
CCCc1cc(=O)[nH]c(SCC(=O)Nc2sc3c(c2C#N)CCC(C)C3)n1 (stereo not drawn)
  ALR inh: 89.3*
  FGF22 binding: i
  rRNA inh HTS: -54.0
  rRNA inh HTS OD600: -72.8
  rRNA inh HTS RFP: -30.9
  T cruzi repl: -3.7
  Calb FLC: ?
  RanGTP-Impb inh: 1.0
  Beta apoptosis: -0.2
  AF4-AF9 inh: -3.6
O=S(=O)(NC1CCCCC1N1CCN(c2ccc(F)cc2)CC1)c1ccccc1 (stereo not drawn)
  ALR inh: 21.4
  FGF22 binding: i
  rRNA inh HTS: 2.6
  rRNA inh HTS OD600: 1.1
  rRNA inh HTS RFP: 3.2
  T cruzi repl: 26.7
  Calb FLC: 15.0
  RanGTP-Impb inh: ?
  Beta apoptosis: 8.5
  AF4-AF9 inh: 10.2
CCOC(=O)c1cc(CC)sc1/N=C/C1=C(O)CC(C)(C)CC1=O
  ALR inh: 3.0
  FGF22 binding: .
  rRNA inh HTS: .
  rRNA inh HTS OD600: .
  rRNA inh HTS RFP: .
  T cruzi repl: 12.2
  Calb FLC: -2.6
  RanGTP-Impb inh: 2.3
  Beta apoptosis: -12.0
  AF4-AF9 inh: .

(further entries)
Compound	ALR inh	FGF22 binding	rRNA inh HTS	rRNA inh HTS OD600	rRNA inh HTS RFP	T cruzi repl	Calb FLC	RanGTP-Impb inh	Beta apoptosis	AF4-AF9 inh
Cc1[nH]nc2c1C(c1ccco1)C(C#N)=C(N)O2 (stereo not drawn)	9.4	i	14.6	11.2	0.9	-17.7	8.9	-2.7	-2.0	-0.3
Cc1cc(C)cc(N(CC(=O)NC(C)(C)C)C(=O)CCC(=O)Nc2nccs2)c1	-2.2	i	-6.5	-3.2	-1.8	-0.9	6.7	1.0	.	2.0
CCc1nnc(NC(=O)C(c2ccccc2)c2ccccc2)s1	-3.0	i	8.6	11.5	1.3	6.9	-19.1	0.0	.	-0.7
CCn1c(Cc2ccc(OC)cc2)nnc1SCC(=O)Nc1ccc(N2CCOCC2)cc1	39.5	i	-1.0	-6.1	-3.2	-4.2	-1.3	2.9	1.6	2.0
O=C(Cc1ccccc1)NCC1COc2ccccc2O1 (stereo not drawn)	.	i	15.2	3.7	2.8	-14.4	10.8	1.9	-2.7	2.7
O=C(C1CCN(S(=O)(=O)c2cccnc2)CC1)N1CCCCC1	-1.1	.	.	.	.	-4.6	3.2	-2.0	.	.
CCN(CC(=O)NC(C)(C)C)C(=O)c1ccccc1SCC(=O)NC1CCCCCCC1	39.1	i	0.6	1.7	-1.4	17.8	0.2	2.2	15.0	3.0
CCc1ccccc1NC1=NCC(=O)N1Cc1ccc2c(c1)OCO2	-3.1	.	.	.	.	-4.8	-10.8	2.4	-6.3	.
CCOC(=O)C1CCN(CCCSc2ccccc2)CC1	.	i	2.7	7.8	0.1	-7.0	-4.5	-1.4	-4.0	-3.5
NC1=NC2(CCCCC2)N(c2ccc(F)cc2F)C(N)=N1	-60.1	i	-1.7	0.3	0.3	11.7	-7.9	?	-2.5	-3.1
COc1ccccc1NC(=S)N(Cc1ccco1)Cc1cc2ccc(C)c(C)c2[nH]c1=O	-2.0	.	.	.	.	-24.3	2.4	?	12.7	.
CC1(C(=O)NC2CCCCCCC2)CCC(=O)N1Cc1ccco1 (stereo not drawn)	.	.	7.2	9.5	2.2	-14.5	1.5	3.7	-1.6	.
Cc1noc(C)c1COc1ccccc1C(=O)NCCc1ccc(Cl)cc1	0.2	i	-11.6	-38.4	-6.1	1.2	9.0	-2.1	-6.7	3.6
COc1ccc(OCC(=O)N/N=C(\C)c2cc3ccccc3o2)cc1	-7.8	i	-9.6	-0.9	-2.8	32.3	1.2	0.1	-5.6	1.4
O=C(CSc1nc2sc3c(c2c(=O)[nH]1)CCCC3)NCCO	18.6	i	1.0	-2.3	-2.4	-1.2	-4.2	3.5	-3.3	-9.1
O=S(=O)(NCc1ccc(F)cc1)c1ccc(-n2cccn2)cc1	5.2	i	0.7	0.1	0.4	-3.8	-13.9	3.3	-3.2	-5.8
O=C(COc1ccccc1)OCC(=O)c1ccc(S(=O)(=O)N2CCCCC2)cc1	-5.0	i	.	.	.	.	.	.	-6.6	-7.0
Cc1ccc(NC(=O)N2CCN(C/C=C/c3ccccc3)CC2)cc1	-3.7	i	-7.2	-15.8	-4.1	9.0	-30.2	-1.0	-2.3	4.1
CCCC(=O)Nc1ccc(C(=O)Nc2cccc(OC)c2)cc1	-5.5	i	-4.4	-0.4	-1.4	-5.3	-15.1	?	-3.9	-1.2
O=C(CSc1ccc(F)cc1)Nc1cccc(S(=O)(=O)N2CCOCC2)c1	.	i	-5.3	-7.6	-0.1	.	.	.	-0.6	-0.3
Cc1nsc(N)c1C(=O)O	-2.3	i	2.9	-1.9	7.5	-8.9	-8.7	7.1	-2.4	0.8
COC(CN1C(=O)C(O)=C(C(C)=O)C1c1ccccn1)OC (stereo not drawn)	9.7	.	.	.	.	-6.2	-3.5	-5.1	.	.
Cc1ccc(CN2CCNC(=O)C2CC(=O)N(C)CCc2ccccc2)cc1 (stereo not drawn)	.	i	-6.7	1.6	2.3	-1.1	11.6	-0.5	-10.4	-1.6
CCOC(=O)COc1ccc(C(=O)c2ccccc2)c(O)c1	-4.5	.	.	.	.	3.6	2.5	0.8	-2.3	.
O=C(NCCNc1nccc(C(F)(F)F)n1)c1cccs1	1.1	i	1.1	5.0	-0.7	5.3	-1.8	-0.4	-4.0	-0.5
CCOC(=O)C(NC(C)=O)(NC(C)C)C(F)(F)F (stereo not drawn)	-4.4	i	7.5	10.1	-1.1	-6.8	5.3	-0.9	-14.1	1.2
O=C(NNC(=O)c1ccncc1)NC1CCCCC1	22.7	.	17.1	13.5	-2.0	-2.1	-6.4	-0.4	-0.7	-1.0
Cc1nc2n(c(=O)c1CCN1CCC(c3noc4cc(F)ccc34)CC1)CCCC2	8.4	i	.	.	.	8.5	-6.6	-0.6	-5.6	-1.4
O=C(Nc1ccccc1)Nc1ccccc1C(=O)NCC1CC1	1.2	i	3.8	5.0	0.1	-16.8	26.2	1.7	-2.4	0.3
Brc1cc(Cc2nnc(-c3ccccc3)o2)c(Br)s1	-15.0	i	-13.7	-25.6	8.2	-6.4	-7.4	-3.9	-12.2	-0.4
COc1ccc(CNC(=O)c2ccc3c(c2)NC(=O)C(C)S3)cc1 (stereo not drawn)	.	i	-16.1	-7.1	-2.5	9.5	1.0	5.9	.	-19.4
O=C(NN=C1CCCC1)c1ccccc1O	.	i	-5.0	-4.1	-5.6	-4.7	1.7	5.6	6.8	-1.2
Cn1nnnc1SCC(=O)NCc1cccs1	.	.	.	.	.	6.2	0.2	1.3	-5.5	.
CC[C@H](C)[C@H](NC(N)=O)C(=O)Nc1ccc(S(=O)(=O)NC(C)C)cc1	-3.4	i	-22.4*	10.7*	5.1*	-7.5	-5.4	4.2	-0.7	4.2
CN(C(=O)COC(=O)C1CCN(S(=O)(=O)c2c(Cl)cccc2Cl)CC1)C1CCS(=O)(=O)C1 (stereo not drawn)	.	i	-0.2	5.5	-2.1	-0.8	-4.0	3.0	0.3	0.5
COc1cccc(CNC(=O)c2ccc(C)c(S(=O)(=O)N3CCCCC3)c2)c1	-1.4	i	-7.6	-34.4	7.4	14.2	10.7	-3.7	2.6	9.2
O=C(CSc1ccccc1C(=O)O)c1ccccc1	6.4	i	5.8	3.6	1.6	-10.4	2.7	3.5	-0.6	-1.1
CC1CCN(CCCNC(=O)C2CCN(S(=O)(=O)N3CCC4(CC3)OCCO4)CC2)CC1	-2.7	i	6.4	12.2	0.2	-8.1	0.8	0.0	-5.6	0.9
CC(/C=C/C=C/c1ccccc1)=N/NC(=O)c1ccc2c(c1)OCCO2	-16.8	i	.	.	.	3.3	-7.8	-0.1	-4.9	0.9
CNCCOc1ccccc1OC(C)C	0.8	.	8.7	5.5	0.8	4.9	-4.2	-2.0	-0.9	-12.1
O=C(NC(C(=O)c1ccccc1)N1CCCCCC1)c1ccco1 (stereo not drawn)	0.9	i	.	.	.	0.3	-9.3	?	0.9	-10.6

The list is partial; the hit share may differ from the screen's.
